Screening data (PubChem BioAssay)
MbtI inh = inhibitors of Mycobacterium tuberculosis siderophore enzyme MbtI; purified MbtI enzyme, fluorescence intensity read-out; actives 0.89% (n = 100,000); inhibition, %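 (about 17 µg/mL by stock and volumes)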; P9WFX0;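 active means above 50% in both replicates, above 80% if mildly self-fluorescent; inactive means the rest, strongly fluorescent compounds included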;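 further: 0% = mean of negative and 100% = mean of positive controls; one replicate is shown; some compounds called inactive have numbers as strong as hits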
Target sequence (P9WFX0 whole entry, looked up): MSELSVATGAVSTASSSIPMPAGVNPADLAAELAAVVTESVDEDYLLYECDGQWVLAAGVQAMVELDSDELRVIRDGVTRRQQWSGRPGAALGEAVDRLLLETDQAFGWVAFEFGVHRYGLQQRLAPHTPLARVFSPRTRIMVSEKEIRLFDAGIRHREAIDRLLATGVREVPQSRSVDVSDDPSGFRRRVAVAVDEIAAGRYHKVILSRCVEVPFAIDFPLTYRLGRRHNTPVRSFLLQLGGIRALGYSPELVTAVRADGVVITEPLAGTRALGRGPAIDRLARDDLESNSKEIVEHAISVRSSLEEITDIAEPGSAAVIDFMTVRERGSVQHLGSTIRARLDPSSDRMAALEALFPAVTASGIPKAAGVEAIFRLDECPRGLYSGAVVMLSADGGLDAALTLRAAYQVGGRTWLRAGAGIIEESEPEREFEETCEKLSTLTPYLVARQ
PV pol inh = poliovirus RNA polymerase inhibition; P03300; poliovirus polymerase elongation, fluorescence polarization; stronger effect = lower value; % elongation, % (compound at 16.7 µg/mL); actives 0.66% (n = 150,000); AID 588519; in the data active means % elongation below about 90%; further: some results filed as inactive read as strong as hits
Target sequence (P03300 1749-2209 limits assumed): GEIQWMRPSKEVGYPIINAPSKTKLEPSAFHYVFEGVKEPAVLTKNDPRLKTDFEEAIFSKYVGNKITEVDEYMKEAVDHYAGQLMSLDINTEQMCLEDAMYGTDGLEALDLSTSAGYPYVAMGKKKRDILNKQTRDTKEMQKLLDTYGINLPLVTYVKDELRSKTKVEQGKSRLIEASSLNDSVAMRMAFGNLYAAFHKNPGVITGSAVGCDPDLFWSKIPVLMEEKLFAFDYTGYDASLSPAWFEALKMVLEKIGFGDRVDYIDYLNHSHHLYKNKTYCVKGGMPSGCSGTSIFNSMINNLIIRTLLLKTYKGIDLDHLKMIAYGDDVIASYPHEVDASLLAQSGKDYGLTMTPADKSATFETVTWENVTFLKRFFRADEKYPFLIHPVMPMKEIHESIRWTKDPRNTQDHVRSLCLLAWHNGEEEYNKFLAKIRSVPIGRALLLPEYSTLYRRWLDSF
Mtb MenB inh = inhibitors of Mycobacterium tuberculosis MenB enzyme. MenB enzyme assay, absorbance read-out; some hits fall short of the stated cut. AID 540299. inhibition, %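 (about 12 µg/mL by stock and volumes)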. actives 0.43% (n = 100,000);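 active means mean of two replicates above 30%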;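 further: 0% = no compound and 100% = wells with inactive enzyme; the first replicate is given; strong numbers were not always called active; inactives centre near -10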
PV pol inh intensity = second read-out of PV pol inh, no call of its own (marks repeat the call); % elongation; measured here: total intensity read-out; formula for this scale not given here;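 total fluorescence in place of polarization; lower means less elongation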
An asterisk follows results filed as active; nt = no result given.

SMILES | MbtI inh | PV pol inh | PV pol inh intensity | Mtb MenB inh
O=C(O)c1cccc(N2C(=O)CCC2=O)c1 | -2 | 101 | 103 | nt
Cc1nc2ccccc2c(=O)n1CC(C)C | 5 | 102 | 101 | -34
CCOc1ccccc1C(=O)NCC(=O)Nc1ccc2c(c1)OCO2 | 6 | 101 | 104 | 4
CN1CCN(C(CNC(=O)NC(C)(C)C)c2ccc(F)cc2)CC1 (configuration not stated) | 2 | 101 | 107 | -6
COc1ccccc1NC(=O)c1cc(-c2ccc(C)o2)nc2ccccc12 | 2 | 99 | 106 | -3
COC(=O)c1ccc(CO/N=C(\N)c2ccc(C(C)(C)C)cc2)o1 | 7 | 102 | 104 | 2
O=C1c2ccccc2C(=O)N1Cc1ccc2c(c1)OCO2 | 10 | 98 | 101 | -7
CC1(C)Cc2c(c(-c3ccccc3)[nH]c(=O)c2C#N)CO1 | 21 | 104 | 102 | 9
CCNc1c(N)c(=O)oc2ccccc12 | -6 | 103 | 106 | -14
O=C(Cn1ccc2ccccc2c1=O)NCC(=O)NC1CCCCCC1 | 10 | 98 | 97 | -6
COCCN1C=C(C(=O)OC)C(c2cccs2)C(C(=O)OC)=C1 | nt | 110 | 111 | -7
Cc1cc(C(F)(F)F)nc(NCCc2ccccc2)n1 | -6 | 98 | 101 | -27
COc1ccc(NC(=O)CCc2cc(OC)c(OC)c(OC)c2)cc1 | -6 | 101 | 100 | -7
CC1CC(C)CN(C(=O)Cn2ncc3ccc(Cl)cc32)C1 (configuration not stated) | 8 | 100 | 102 | 14
CCCc1nc2ccccc2c(NC(=O)CN(CC)CC)c1CC | -5 | 102 | 100 | -40
CC(C)N1C(=O)S/C(=C/c2ccc(Sc3nc4ccccc4[nH]3)o2)C1=O | 2 | 105 | 102 | -46
CC(C)(C)S(=O)(=O)c1ccc(S(=O)(=O)C(C)(C)C)cc1 | nt | 112 | 110 | 0
COc1cc(C#N)ccc1OCC(=O)N(C)CC(=O)Nc1ccc(F)cc1 | 1 | 106 | 110 | 4
Cc1nc(SCc2ccc(C#N)cc2)c(C#N)c(-c2ccco2)c1C(=O)N(C)C | -3 | 103 | 107 | -16
Cc1cc(C)c2nc(SCC#N)cc(C)c2c1 | -2 | 107 | 105 | -29
Cc1ccc(C)c2[nH]c(=O)c(CCNC(=O)CC(C)(C)C)cc12 | -5 | 100 | 101 | -1
O=C(c1ccccc1)N1CCN(C2CCCCC2)CC1 | 4 | 100 | 100 | -28
CCCN1CCN(C(=O)c2cn(C)c(=O)c3cc(OC)c(OC)cc23)CC1 | 16 | 100 | 103 | 13
O=C1c2ccccc2C(=O)N1CCSc1ncnc2c1cnn2-c1ccccc1 | 0 | 103 | 105 | -32
CCOC(=O)c1noc2c1COc1ccccc1-2 | 8 | 101 | 101 | -8
CCc1cc(=O)oc2c(C)c3occ(-c4ccc(Cl)cc4)c3cc12 | 24 | 102 | 100 | 8
COCCN=C1SC(C(=O)Nc2cccc(C#N)c2)C(N)=C1C(=O)N1CCN(C)CC1 (configuration not stated) | 9 | 102 | 109 | -14
O=P1(NCCCn2ccnc2)C=C(c2ccccc2)OC(c2ccccc2)=C1 | -8 | 102 | 94 | -12
COC(=O)c1cc(-c2ccc(OC)cc2)n[nH]1 | -11 | 100 | 101 | -9
Cc1cc(C)nc(N2CCC(C(=O)Nc3nnc(C(C)C)s3)CC2)n1 | 5 | 101 | 103 | 22
CCC(C)n1nccc1N (configuration not stated) | 10 | 106 | 108 | 11
S=P(N1CC1)(N1CC1)N1CC1 | -3 | 100 | 103 | 9
CCOc1ccc(NC(=S)N2C(C)CCCC2C)cc1 (configuration not stated) | 2 | 102 | 101 | -8
COc1cc2c(cc1OC)CN1C(=S)N(C)C(=O)C1C2 (configuration not stated) | 14 | 99 | 102 | -2
c1ccc(-c2ccccc2-n2cnnn2)cc1 | nt | 98 | 108 | -1
O=C(N/N=C\C1C(=O)NC(=S)N(c2ccccc2)C1=O)c1ccc(O)cc1 (configuration not stated) | 20 | 104 | 106 | -91
COc1ccccc1C1CCN(C(=O)[C@@H](C)N2CCN(c3ccc(C(F)(F)F)cn3)CC2)CC1 | -18 | 103 | 104 | -29
Cc1ccc(S(=O)(=O)NCc2ccccc2)cc1 | nt | 107 | 101 | -13
CN(Cc1nc2ccccc2c(=O)[nH]1)C(=O)c1cc(Br)cc(Br)c1O | 62 | 102 | 102 | -1
O=C(CSc1nnc(-c2ccc(F)cc2)o1)N(Cc1nc2ccccc2c(=O)[nH]1)CC1CCCO1 (configuration not stated) | -1 | 107 | 101 | -29
CC1(N2CCOCC2)CC(=O)N(c2ccccc2)O1 (configuration not stated) | 5 | 100 | 102 | -18
Cc1c2c(nc3c(C(=O)NC4CCCC(C)C4C)cnn13)CCCC2 (configuration not stated) | 105 | 102 | 106 | -18
Cc1ccc(NC(=O)N2c3ccccc3Sc3ccccc32)c(C)c1 | -211 | 99 | 102 | 7
c1csc(Cc2nc3ccccc3[nH]2)c1 | -14 | 105 | 104 | nt
COC(=O)c1ccccc1NC(=O)C1CC(c2ccccc2OC)=NO1 (configuration not stated) | 0 | 99 | 104 | -1
COc1ccc(-c2coc3cc4oc(=O)ccc4cc23)cc1 | -5 | 101 | 102 | 20
CCCN(C(=O)c1coc(=O)c2ccccc12)c1cccc(C)c1 | -8 | 100 | 102 | 5
CC1(O)NC(=O)C2(C#N)C(C#N)(C#N)C12c1ccccc1 (configuration not stated) | nt | 102 | 110 | 0
Cn1nccc1C(=O)NCCN1C(=O)OC2(CCCCC2)C1(C)O (configuration not stated) | nt | 108 | 113 | -6
c1ccc(OCCCCN2CCCCC2)cc1 | -2 | 100 | 102 | -17
Cn1c(=O)oc2cc(S(=O)(=O)Nc3ccccc3)ccc21 | -7 | 101 | 98 | -10
COc1ccc(-n2c(O)c(C=NCc3ccccc3)c3ccccc3c2=O)cc1 | 0 | 103 | 104 | nt
COC(=O)c1ccc(-c2ccccn2)s1 | -17 | 102 | 93 | 12
COc1ccc(-n2c(O)c(C=NCC(c3ccco3)N3CCCC3)c3ccccc3c2=O)cc1OC (configuration not stated) | -22 | 114 | 105 | 6
Cc1ccc(-c2noc(CCCC(=O)N(C)C)n2)cc1 | 5 | 102 | 104 | 6
CCOC(=O)c1sc(N)c(C#N)c1CSc1ncnc2sc(CC)cc12 | 9 | 72 | 224 | -38
CN1C(=O)CSc2ccc(NC(=O)Nc3cccnc3)cc21 | 0 | 103 | 103 | -2
Nc1cc(C(F)(F)F)ccc1N1CCOCC1 | -7 | 100 | 97 | nt
Fc1ccc(Nc2c(-c3ccccc3)nc3ccccn23)cc1 | 96 | 102 | 105 | -28
Cc1ccc(SCCC(=O)NN)cc1 | 11 | 103 | 101 | -15

Sorted by molar mass (ascending): some entries from above
SMILES | MbtI inh | PV pol inh | PV pol inh intensity | Mtb MenB inh
CCC(C)n1nccc1N (configuration not stated) | 10 | 106 | 108 | 11
CCNc1c(N)c(=O)oc2ccccc12 | -6 | 103 | 106 | -14
c1csc(Cc2nc3ccccc3[nH]2)c1 | -14 | 105 | 104 | nt
Cc1cc(C)c2nc(SCC#N)cc(C)c2c1 | -2 | 107 | 105 | -29
CC1(N2CCOCC2)CC(=O)N(c2ccccc2)O1 (configuration not stated) | 5 | 100 | 102 | -18
Cc1ccc(-c2noc(CCCC(=O)N(C)C)n2)cc1 | 5 | 102 | 104 | 6
CC1(O)NC(=O)C2(C#N)C(C#N)(C#N)C12c1ccccc1 (configuration not stated) | nt | 102 | 110 | 0
Cc1cc(C(F)(F)F)nc(NCCc2ccccc2)n1 | -6 | 98 | 101 | -27
CCOc1ccc(NC(=S)N2C(C)CCCC2C)cc1 (configuration not stated) | 2 | 102 | 101 | -8
Cc1ccc(C)c2[nH]c(=O)c(CCNC(=O)CC(C)(C)C)cc12 | -5 | 100 | 101 | -1
COCCN1C=C(C(=O)OC)C(c2cccs2)C(C(=O)OC)=C1 | nt | 110 | 111 | -7
Cc1c2c(nc3c(C(=O)NC4CCCC(C)C4C)cnn13)CCCC2 (configuration not stated) | 105 | 102 | 106 | -18
Cc1cc(C)nc(N2CCC(C(=O)Nc3nnc(C(C)C)s3)CC2)n1 | 5 | 101 | 103 | 22
O=C(N/N=C\C1C(=O)NC(=S)N(c2ccccc2)C1=O)c1ccc(O)cc1 (configuration not stated) | 20 | 104 | 106 | -91
COc1ccccc1C1CCN(C(=O)[C@@H](C)N2CCN(c3ccc(C(F)(F)F)cn3)CC2)CC1 | -18 | 103 | 104 | -29

Other structures follow.
SMILES | MbtI inh | PV pol inh | PV pol inh intensity | Mtb MenB inh
Cc1c(NC(=O)[C@@H](NC(N)=O)C(C)C)c(=O)n(-c2ccccc2)n1C | 4 | 103 | 106 | 8
Cc1ccc2c(c1)N(CC(=O)N1CCCCC1C)C(=O)CO2 (configuration not stated) | -6 | 99 | 99 | 3
COc1ccc(CN=C(N)N=C(N)N)cc1 | -12 | 101 | 102 | -8
Cc1ccnc(NC(c2ccco2)c2c(C)[nH]c3ccccc23)c1 (configuration not stated) | 158 | 96 | 102 | 5
CS(=O)(=O)c1ccc(Cl)c(N)c1 | 5 | 103 | 109 | 6
CCCN(C(=O)C(C)(C)C)c1nc(-c2ccccc2)cs1 | -2 | 101 | 102 | -1
O=C(N/N=C/c1ccncc1)c1ccccc1 | 22 | 103 | 99 | -18
Cc1ccc(NC(=O)CSc2nncn2N)cc1C | -2 | 103 | 104 | 13
O=C(OCN1C(=O)c2ccccc2C1=O)C1CCN(S(=O)(=O)c2ccc3c(c2)OCCO3)CC1 | 14 | 97 | 91 | -21
CC(C)c1ccc(OCC(=O)NC(C)c2ccccc2)cc1 (configuration not stated) | nt | 101 | 114 | -13
O=C(CN1CCN(CN2C(=O)NC3(CCCC3)C2=O)CC1)Nc1ccc(Cl)c(C(F)(F)F)c1 | -4 | 106 | 106 | -22
O=C(O)CSCC(=O)NC1CCCCNC1=O (configuration not stated) | 4 | 104 | 95 | -28
CCCCN1C(=O)c2ccc(C(=O)NCc3ccco3)cc2C1=O | -2 | 102 | 104 | 6
O=C(CSc1nc2ccccc2c(=O)[nH]1)c1ccc(O)cc1O | 82* | 104 | 102 | 6
CC(=O)N/C(=N/c1nc(C)cc(C)n1)Nc1cccc(C)c1 | -2 | 102 | 100 | -9
Fc1ccccc1CCNc1c2c(nc3ncnn13)CCCC2 | nt | 105 | 107 | -26
CN(C)c1cccc(N2C(=S)SC3CS(=O)(=O)CC32)c1 (configuration not stated) | -12 | 102 | 105 | -12
Cc1cc(Oc2ccc(Cl)cc2)nc(-c2ccccn2)n1 | -7 | 102 | 104 | -7
COc1cccc(N2CCN(C(=O)CCCn3sc4ccccc4c3=O)CC2)c1 | 97* | 99 | 103 | -40
CCc1c(C)c(C#N)c2nc3ccccc3n2c1-n1cnc2ccccc21 | -9 | 99 | 101 | -26
Cc1cc(OCC(=O)NCc2cccnc2)c(C)cc1Br | -8 | 101 | 98 | -35
Cc1ccc(-c2nnc3c4cnn(-c5ccccc5)c4ncn23)cc1 | -29 | 102 | 106 | -8
Cc1csc(=O)n1CCC(=O)OCc1cc(Cl)cc2c1OCOC2 | 1 | 107 | 123 | -44
Cn1c(=O)n(C)c2cc(Nc3cc(SCc4ccccc4)ncn3)ccc21 | 2 | 104 | 103 | -9
COc1ccc(C(=O)N/N=C(\Cc2ncc[nH]2)c2ccccc2)cc1 | 6 | 106 | 110 | -50
Cc1sc(-c2cccs2)nc1-c1ccccc1 | 84 | 108 | 100 | 6
O=C(CC(c1ccccc1)c1ccco1)N1CCCCC1 (configuration not stated) | -9 | 102 | 102 | -25
CC12CC(C)(C)C(C#N)(C(N)=C1C#N)C(=C(C#N)C#N)N2 (configuration not stated) | 5 | 83* | 75* | -15
CC(=O)Nc1ccc(/C=N/N2CCCCC2)cc1 | 14 | 103 | 109 | 11
O=C(NC1CCCC1)c1ccc(COc2ccccc2Br)o1 | 7 | 102 | 103 | -2
FC(F)(F)c1ccc(N=Cc2ccco2)cc1 | 2 | 104 | 105 | nt
CCN1C(=O)/C(=C/C=C2\N(C)c3c(ccc4cccnc34)C2(C)C)SC1=S | 13 | 99 | 90 | -15
C/C(N)=C(/C#N)C(=O)CSc1nc(-c2ccccc2)cn1N | 36 | 100 | 97 | 21
COC(=O)c1ccc(NC2=NCCCCC2)s1 | -15 | 105 | 109 | 2
CCN(CC)c1ccc(C2C3=C(CC(C)(C)CC3=O)OC3=C2C(=O)CC(C)(C)C3)cc1 | 23 | 101 | 104 | -79
COc1cccc(C(=O)NCCc2csc3nc(-c4ccc(C)cc4)nn23)c1OC | -4 | 101 | 98 | -4
CC1CCC(NC(=O)c2ccccc2N)CC1 (configuration not stated) | -220 | 99 | 98 | 6
O=C(CN1CCN(Cc2ccccc2)CC1)NCc1ccco1 | -9 | 100 | 103 | 5
O=C(CNc1ccc(F)cc1)N/N=C/C1CC=CCC1 (configuration not stated) | -5 | 106 | 101 | -4
Cc1ccc2c(CN3CCC(C)CC3)cc(=O)oc2c1 | 9 | 97 | 100 | -8
CCN1C(=O)N/C(=C/c2ccc(OCC(=O)O)cc2)C1=O | 10 | 100 | 101 | -18
Cc1nc2ccccn2c1-c1ccnc(SCC(=O)c2cccc(C(F)(F)F)c2)n1 | -32 | 109 | 111 | -4
CCOC(=O)c1ccc(N2CCN(c3cccc(Cl)c3)CC2)c(NC(=O)Nc2ccccc2)c1 | 190 | 100 | 101 | 7
CCOC(=O)C1=NNC2C(=O)N(c3cc(Cl)ccc3OC)C(=O)C12 (configuration not stated) | 6 | 104 | 102 | -17
